Assay outcomes deposited in PubChem BioAssay by several laboratories.
B2AR ag: beta2AR agonists driving receptor internalization, primary screen, cell-based, FAP fluorogen, flow cytometry. response, % (concentration not given with the values). actives 0.43% (n = 340,000). Beta-2 adrenergic receptor (Homo sapiens), P07550. Am2.2-beta2AR cells; reference of the scale not given here. AID 504454, 2011;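 active = response above a set limit, near 3 SD of response in nonfluorescent compounds, cut at about 42% in these data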;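 note: stock transfer was 100 nL into about 11 µL; a reference agonist was the positive control; negative values mostly stem from fluorescent compounds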
HNF4A DNA FP: change in binding of human HNF4A to DNA, primary screen, biochemical, fluorescence polarization, FITC-DNA; Hepatocyte nuclear factor 4-alpha (Homo sapiens), P41235; actives 0.3% (n = 360,000); 1 h; activity change, % at 10 µM; AID 1224865, 2016; in the data active = activity change above about 30%, passing the limit was not always enough;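 note: controls were the assay level and a saturating level of protein; the project sought stronger binding though the title names inhibitors; some compounds called inactive have numbers as strong as hits; positive values seem to mean higher polarization but the record does not say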
Vif A3G: inhibitors of Vif binding to APOBEC3G peptide, primary screen, biochemical, TR-FRET, GST-Vif 1-94, biotin-A3G peptide, dose response retest (AID 1117319); TR-FRET GST-Vif / biotin-A3G peptide binding; higher % means a stronger effect; test concentration not given here; strong numbers were not always called active; Virion infectivity factor (Human immunodeficiency virus type 1 group M subtype B (isolate …; one-dose inhibition, %; IC50 in µM for titrated hits; actives 0.57% (n = 260,000);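 active = above the screen mean plus three standard deviations and confirmed in dose response; inconclusive = results disagree or hit not tested in dose response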;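 note: Vif residues 1-94 fused to GST binding biotinylated APOBEC3G peptide 110-148; 0% = full assay without inhibitor and 100% = GST in place of GST-Vif; retest series ran down from 100 µM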
RanGTP-Imp inh: inhibitors of RanGTP-importin-beta interaction, primary screen, biochemical, FRET, CFP-Ran, YFP-importin-beta, homogeneous. cell-free CFP-Ran/YFP-importin-beta FRET ratio. AID 2216, 2009. inhibition, % (concentration not given with the values). Ran GTPase (GTP-bound) - importin-beta complex. actives 1.1% (n = 300,000);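 active = most replicates above 15%; inconclusive = exactly half above 15%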;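 note: 0% = DMSO wells and 100% = Ran loaded with GDP instead of GTP; wells of about 40 µL received 100 nL stock; the first replicate is given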
Calb FLC: C. albicans growth inhibition with fluconazole, primary screen, CaCi-2 strain, Alamar Blue fluorescence. actives 0.57% (n = 300,000). growth inhibition, % (no concentration beside the values). C. albicans CaCi-2 (fluconazole-resistant clinical isolate) + fluconazole, 48 h;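 active = most replicates above 75%; inconclusive = exactly half above 75%; inactive = most below 75%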;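 note: all wells also contain fluconazole at 8 µg/ml as a sub-toxic cotreatment; 0% = median of DMSO wells and 100% = median of geldanamycin control wells; wells of about 8 µL received 7.5 nL stock; the first replicate is given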
ALR inh: inhibitors of human ALR sulfhydryl oxidase, primary screen, biochemical, H2O2 detection, HRP-luminol luminescence, single point; FAD-linked sulfhydryl oxidase ALR (Homo sapiens), P55789; purified ALR, DTT oxidation; inhibition, % (test concentration not listed); actives 3.8% (n = 290,000); AID 485317, 2010;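 active = mean and each replicate at 75% or more; inconclusive = only one of the two met; inactive = neither met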;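 note: stock transfer was 7.5 nL into about 7.5 µL; 0% = neutral wells and 100% = wells with inactivated enzyme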
LANA-H2A inh: blockers of LANA interaction with H2A/H2B – biochemical, FP readout, HTS, primary screen | cell-free LANA-H2A/H2B peptide, fluorescence polarization | AID 2629, 2010 | inhibition, % (concentration not given with the values) | actives 0.6% (n = 320,000); in the data active = inhibition mostly above about 10%, no sharp cut-off; inactive = mostly below about 6.7%;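 note: stock transfer was 7.5 nL into about 10 µL; 0% = median of vehicle wells and 100% = median of positive control wells; one replicate is shown; the record names a cut of 25% in any replicate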
Target sequence (Q9QR71 whole entry, looked up): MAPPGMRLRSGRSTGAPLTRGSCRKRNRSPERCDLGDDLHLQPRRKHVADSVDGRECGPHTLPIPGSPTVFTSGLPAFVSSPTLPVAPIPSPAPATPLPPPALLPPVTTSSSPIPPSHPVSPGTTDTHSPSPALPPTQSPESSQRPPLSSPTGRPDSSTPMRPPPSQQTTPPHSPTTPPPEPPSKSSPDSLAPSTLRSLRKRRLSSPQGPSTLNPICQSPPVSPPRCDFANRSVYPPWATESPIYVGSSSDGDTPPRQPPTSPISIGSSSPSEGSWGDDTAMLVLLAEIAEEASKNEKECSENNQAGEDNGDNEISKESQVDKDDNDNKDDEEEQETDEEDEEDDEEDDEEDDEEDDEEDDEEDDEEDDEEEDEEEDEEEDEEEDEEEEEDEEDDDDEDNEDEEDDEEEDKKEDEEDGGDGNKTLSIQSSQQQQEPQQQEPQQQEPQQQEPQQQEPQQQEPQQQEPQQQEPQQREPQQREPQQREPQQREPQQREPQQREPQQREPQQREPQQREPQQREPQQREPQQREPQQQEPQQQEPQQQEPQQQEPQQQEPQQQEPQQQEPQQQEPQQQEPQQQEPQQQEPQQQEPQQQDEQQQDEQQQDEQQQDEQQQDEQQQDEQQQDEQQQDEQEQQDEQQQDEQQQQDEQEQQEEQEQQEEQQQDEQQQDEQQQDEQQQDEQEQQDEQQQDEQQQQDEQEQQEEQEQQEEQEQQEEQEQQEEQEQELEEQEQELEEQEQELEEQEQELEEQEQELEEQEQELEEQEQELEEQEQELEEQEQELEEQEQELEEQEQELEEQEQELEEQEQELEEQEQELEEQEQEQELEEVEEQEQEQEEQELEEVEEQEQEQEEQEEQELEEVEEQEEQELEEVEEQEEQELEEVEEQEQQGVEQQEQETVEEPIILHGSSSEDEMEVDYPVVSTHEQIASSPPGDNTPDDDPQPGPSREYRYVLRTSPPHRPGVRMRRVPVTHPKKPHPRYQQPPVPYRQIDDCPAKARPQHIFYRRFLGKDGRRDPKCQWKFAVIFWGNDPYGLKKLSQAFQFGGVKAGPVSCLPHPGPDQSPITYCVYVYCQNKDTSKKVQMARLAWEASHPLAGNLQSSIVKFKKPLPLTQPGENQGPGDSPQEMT
* hit, by the source's call; u = inconclusive; x = not tested or not shown; & = joins results of further samples.

SMILES | B2AR ag | HNF4A DNA FP | Vif A3G | RanGTP-Imp inh | Calb FLC | ALR inh | LANA-H2A inh
COc1ccc(OC)c(CNc2ccc3c(c2)nc(C)n3C)c1 | -5 | -2.3 | x | 2.5 | 15 | 85* | -4.1
CC1=CC(=O)C=C(C)C1=NOC(=O)/C=C\c1ccccc1 | 7 | -1.9 | x | 1.4 | 35 | 98* | -7.2
Nc1ccccc1SCC(O)Cn1ccc2ccccc21 (centres undefined) | 3 | -0.2 | 5% | -2.1 | -6 | 60 | -1.0
O=S(=O)(c1ccc(SCCO)nc1)N1CCCC1 | -7 | 2.4 | 2% | 0.1 | 5 | x | 3.2
COc1ccc(N(CC(=O)NCc2ccc(C)cc2)S(=O)(=O)c2c(C)nn(C)c2C)cc1 | -2 | 3.0 | 4% | -1.4 | 9 | -5 | 0.9
O=C(Nc1ccnn1C1CCN(C/C=C/c2ccccc2)CC1)C1CCCC1 | 9 | 4.4 | 3% | 2.4 | 9 | 3 | 0.7
O=C(C[n+]1ccccc1)Nc1ccccc1 | -6 | 4.9 | x | 3.8 | -6 | -4 | -3.8
O=C(N/N=C/c1ccccc1)c1c(O)c2ccccc2[nH]c1=O | 3 | 1.4 | u | 1.5 | -4 | -7 | 0.9
CCN1CCN(S(=O)(=O)c2cc(C)c(OC)cc2C)CC1 | -4 | 1.1 | -5% | 4.8 | 0 | 16 | 0.1
CN(C)c1ccc(NC(=O)c2ccc(COc3cccc(Cl)c3)o2)cc1 | 6 | 0.0 | 4% | 5.3 | 9 | 74 | 1.4
COc1ccc([N+](=O)[O-])cc1/C=N/NC(=O)/C(=C\c1cccs1)NC(=O)c1ccccc1 | 8 | -1.3 | 5% | 0.2 | 7 | -1 | 2.2
Oc1ccc(C[C@@H]2CNCCN2CC2(c3ccccc3)CC2)cc1 | 14 | 0.5 | x | -0.5 | -1 | 28 | -1.7

The final two compounds of the section before are carried over, then new ones follow.
SMILES | B2AR ag | HNF4A DNA FP | Vif A3G | RanGTP-Imp inh | Calb FLC | ALR inh | LANA-H2A inh
COc1ccc([N+](=O)[O-])cc1/C=N/NC(=O)/C(=C\c1cccs1)NC(=O)c1ccccc1 | 8 | -1.3 | 5% | 0.2 | 7 | -1 | 2.2
Oc1ccc(C[C@@H]2CNCCN2CC2(c3ccccc3)CC2)cc1 | 14 | 0.5 | x | -0.5 | -1 | 28 | -1.7
COCc1nnc(NC(C)=O)s1 | -3 | -3.8 | x | -1.7 | -1 | -7 | 0.5
O=C(CN1CCOC1=O)N1CCCC(Nc2ccc(F)c(F)c2)C1 (centres undefined) | -2 | 1.4 | x | 5.4 | -2 | 12 | 7.0
O=S(=O)(Cc1cc(NCc2ccccc2)nc(-c2ccncc2)n1)c1ccccc1 | -2 | 1.4 | -8% | -1.1 | -6 | -6 | 1.6
Cc1ccc(SCC(=O)OCC(=O)N(CCC#N)c2ccccc2)cc1C | 1 | -2.2 | -6% | 3.6 | 1 | -5 | 10.0
COc1cccc(CNc2nc(SC)ncc2CO)c1 | -5 | -4.9 | 12% | 1.5 | 23 | -1 | -12
CC(=O)Nc1ccc(OCC(O)CN2CCN(c3cccc(Cl)c3)CC2)cc1 (centres undefined) | -13 | -1.7 | 26%&4% | 0.6 | -33 | 99* | -4.5
NC(=O)C1CCN(C(=O)c2cccc(S(=O)(=O)N3CCCC3)c2)CC1 | -1 | 0.0 | -1% | x | x | x | x
CN(Cc1ccc(Cl)cc1Cl)C(=O)CCNC(=O)c1ccco1 | -9 | -0.4 | x | x | x | -2 | 3.7
CC(=O)N1CCN=C1SCc1ccc(C)cc1 | -35 | -1.0 | -6% | -1.9 | 5 | 95* | -1.0
CCOC(=O)c1c(NC(=O)C2C3C=CC(C3)C2C(=O)O)sc2c1CC(C)(C)OC2 (centres undefined) | 5 | 0.1 | -4% | -1.9 | 10 | 0 | 3.6
CCn1c2ccccc2c2cc(NC(=O)CC(C)=O)ccc21 | 1 | -0.8 | -3% | -3.4 | -1 | 1 | -2.1
C1=C(c2ccccc2)Nc2ncnn2C1c1ccccc1 (centres undefined) | 0 | -3.3 | x | -14 | 2 | x | 0.9
Cc1ccccc1CN1CCN(C(=O)c2ccc(F)cc2)CC1 | 7 | -1.8 | x | 4.2 | 1 | -5 | 3.7
CCCS(=O)(=O)c1nc(S(=O)(=O)c2ccc(C)cc2)c(N2CCC(C)CC2)s1 | -13 | -1.7 | x | -1.1 | -9 | -3 | 3.8
CCN(CC)CCNc1cc(C)nc2c1C(=O)C(=O)C=C2N1CCCCC1 | 10 | 3.7 | u | 1.3 | 33 | 8 | -1.3
O=C(Cc1ccccc1[N+](=O)[O-])NCCc1ccc(F)cc1 | 4 | -2.3 | -8% | -1.2 | 3 | -9 | -0.6
O=C(NCCN1CCN(c2ccccc2)CC1)C1CCN(S(=O)(=O)c2cccc3nsnc23)CC1 | 13 | -0.2 | -5% | 1.8 | -8 | 1 | 5.6
CC1(C)C(=O)C2(CCCCC2)C(=O)OC1c1cccn1-c1ccc([N+](=O)[O-])cc1 (centres undefined) | 0 | -0.6 | x | u | -9 | 1 | -3.7
COc1ccc(-c2noc(CNC(=O)CCCN3C(=O)[C@H]4CC=CC[C@H]4C3=O)n2)cc1 | 7 | 9.2 | x | 8.3 | x | 1 | -5.6
O=C(NC(=S)Nc1ccc(N2CCCCC2)cc1)c1cccs1 | -3 | -1.6 | u | -1.7 | -10 | 60 | 1.6
Oc1[nH]c2ccccc2c1N=Nc1ccccc1 | -6 | -73 | 0% | -0.3 | 3 | x | 16*
O=C(N/N=C/C=C/c1ccc2c(c1)OCO2)C(O)c1ccccc1 (centres undefined) | 4 | -0.1 | 23% | 1.5 | 23 | -6 | -4.0
COc1cc2c(cc1OC)CN(CC(=O)Nc1cccc([N+](=O)[O-])c1)CC2 | -5 | -1.7 | 3% | -0.4 | -13 | -7 | -0.4
Cc1ccnc2c1ccc1c(C)ccnc12 | -3 | 1.4 | -4% | x | x | -6 | x
CC(CCC(=O)O)(c1ccc(O)cc1)c1ccc(O)cc1 | -1 | 4.8 | x | x | x | 27 | 1.9
O=C1CN(C(=O)COC(=O)C23CC4CC(CC(O)(C4)C2)C3)c2ccccc2N1 | 3 | 2.9 | 68% | 0.8 | 5 | -8 | -8.6
CCNC(=S)NCc1ccc2c(c1)OCO2 | 6 | -1.4 | 16% | 4.9 | -24 | -4 | -1.5
CN(C)CCOc1nc(-c2ccccc2)nc2c1oc1ccccc12 | 18 | -1.4 | -1% | 1.0 | 31 | -3 | -3.8
CC1CN(C(=O)c2cn3ccccc3n2)CC(C)O1 (centres undefined) | -1 | 3.6 | 9% | 2.6 | 3 | x | -0.5
CCCCNC(=O)c1nnn(-c2ccccc2)c1N | -3 | -3.7 | 23% | 2.8 | -6 | 0 | 3.1
CC(=O)c1cc(-c2ccccc2)n(CC(=O)Nc2cccc(C)c2C)c1C | 0 | -1.3 | x | -0.6 | 2 | 0 | 3.8
NC(=O)c1ccsc1NC(=O)COC(=O)c1c(F)cccc1Cl | 5 | 1.2 | -3% | x | x | 26 | x
CCOc1ccc(C(=O)Nc2ccc(NC(=O)c3ccco3)c(Cl)c2)cc1Br | -7 | 1.6 | u | 4.0 | 19 | -2 | -11
C#CCn1c(=NC(=O)c2cc(-c3cccs3)nc3ccccc23)sc2cc(S(N)(=O)=O)ccc21 | -12 | 7.1 | -99% | 12 | 10 | 2 | -5.6
CC(=O)Nc1ccc(N2C(=O)CSC2c2ccccc2[N+](=O)[O-])cc1 (centres undefined) | -7 | 0.9 | 0% | 4.8 | -25 | 98* | 4.3
Cc1ccc(Nc2nc(-c3ccc(C)cc3)c(CC(=O)O)s2)cc1 | -1 | 16 | x | 3.9 | -4 | x | 0.1
CCOC(=O)c1sc(NC(=O)C2CCC2)cc1C | -29 | 3.0 | -2% | 2.6 | 4 | -3 | 3.7
N/C(=N\OC(=O)c1ccc(Cl)cc1)c1ccccn1 | -4 | 5.7 | 3% | -2.6 | -3 | -2 | -0.6
CCOC(=O)CSc1nc(-c2ccccn2)ncc1OC | -10 | 4.6 | -5% | -1.5 | -5 | -2 | 5.0
O=CNc1ccccc1 | -2 | 1.9 | x | x | x | -6 | 96*
COc1cccc(C2(O)CCN(C(=O)Cc3cccnc3)CC2)c1 | 1 | 0.8 | 8% | 1.1 | 10 | 0 | 1.3
S=c1[nH]c2ncccc2o1 | -4 | -0.2 | u | 0.7 | 1 | 20 | 3.5
CCOc1ccc(S(=O)(=O)NN)cc1 | 0 | -1.4 | -1% | -3.1 | -4 | 42 | 0.8
NS(=O)(=O)c1ccc(CCNC(=O)COC(=O)c2nc(Cl)ccc2Cl)cc1 | -4 | -1.7 | -2% | x | x | -6 | x
Cc1cccc(Nc2nnc(-c3ccc(N4CCOCC4)c([N+](=O)[O-])c3)c3ccccc23)c1 | 10 | -5.4 | -4% | 1.4 | 5 | -12 | 2.4
COc1ccc(C(C)(C)C)cc1NC(=O)CNc1cccc2ccccc12 | 4 | 5.1 | x | -3.0 | 30 | -18 | -3.3
Cc1cc([N+](=O)[O-])nn1CC(=O)N1CCOCC1 | 2 | 7.3 | -4% | -4.1 | -4 | -6 | -0.2
COc1ccc(CCNC(=O)NC2CCCCC2)cc1 | 2 | 2.1 | 7% | 3.1 | 8 | x | -1.7
CC(C)NC(=O)C1CCN(C2CCN(C(=O)/C=C/c3cccs3)CC2)CC1 | -1 | 0.7 | -6% | -1.4 | 0 | x | x
CCOC(=O)NN1C(=O)c2ccccc2NC1c1ccc(OC)c(OC)c1 (centres undefined) | 1 | 0.4 | -13% | 1.2 | -8 | -4 | -20
COc1cccc(N2CC(NC(=O)C(=O)c3c(C)[nH]c4ccccc34)CC2=O)c1 (centres undefined) | 0 | 7.0 | 3% | 4.9 | 2 | x | -1.7
COc1ccc(Br)cc1S(=O)(=O)NCc1ccccn1 | 0 | -2.1 | u | 1.1 | -2 | -17 | 3.2
C=CCSc1nc(N(CC)CC)c2sccc2n1 | 1 | -2.5 | 22% | 4.1 | -1 | 0 | 1.5
CCc1ccc(NC(=O)COc2ccc3c(c2)OCO3)cc1 | 0 | -1.8 | -4% | 6.8 | -23 | -3 | 3.9
COc1ccc(CCN=C(N)NS(=O)(=O)c2ccc3ccccc3c2)cc1 | 10 | 0.7 | -8% | -2.4 | 12 | 0 | -3.1
O=C(NC1c2ccccc2-c2ccccc21)c1ccccc1 | -2 | 3.0 | x | -2.8 | -36 | -3 | 0.5
Cc1ccc(C(=O)N/N=C/c2ccc3c(c2)OCO3)o1 | -4 | -3.6 | -3% | 1.3 | 4 | -19 | -2.5
CC(=O)Nc1c(Br)cc2c(c1Br)Cc1cc(Br)ccc1-2 | -4 | -1.6 | -21% | x | x | x | x
Cc1cc(OCC(=O)Nc2cccc(S(=O)(=O)NC3=NCCCCC3)c2)ccc1Cl | -11 | -4.3 | x | 3.1 | 4 | -2 | -7.0
Oc1c(Br)cc(Br)c(/C=N/n2c(-c3ccccc3)n[nH]c2=S)c1Br | 8 | -6.7 | 1% | 2.2 | 79* | 85* | -2.3
Cc1nonc1C(=O)N/N=C/c1cccc(O)c1 | -8 | 2.6 | u | 0.6 | 6 | 5 | -0.4

Not a hit list. Share with any hit: about 6.3%.
